PD-1 reversal: activators reversing PD-1 mediated T-cell inhibition, primary screen, luminescence, primary human CD4 T cells, PD-L1 beads | AID 2316, 2010 | 29,000 tested, under 10 active | CellTiter-Glo 96 h | activation, % (test concentration not listed);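 active = replicate mean of 50% or more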;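 also: 0% = median vehicle wells and 100% = positive control; 100 nL library stock added to about 50 µL; numbers are from one replicate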
Shh pathway inh: Hedgehog pathway signaling inhibitors, primary screen, luminescence, Shh-LIGHT2 cells, Gli-luciferase. Shh-LIGHT2 Gli-luciferase reporter, 30 h. AID 2313, 2010. inhibition, % (test concentration not listed). hit rate 2.1% among 22,000;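 active = replicate mean of 65% or more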;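 also: pathway switched on by Shh-conditioned medium diluted 1 in 25 in low serum; 100 nL library stock added to about 40 µL; 0% = median of neutral wells and 100% = positive control level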
YB-1 expr inh: inhibitors of YB-1 gene expression, primary screen, cell-based, fluorescence | U2OS, qRT-PCR YB-1 vs CDIP delta delta Cp, 16 h; stronger effect = higher value; zero = DMSO, each unit about twofold | delta delta Cp (YB-1 minus CDIP) (concentration not given with the values) | hit rate 0.37% among 30,000;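 active = delta delta Cp rounded down to an integer at or above 3, about 3 SD of DMSO wells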;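 also: higher means less YB-1 transcript or more CDIP transcript relative to DMSO; stock transfer was 100 nL into about 100 µL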
MITF inh: inhibitors of MITF, primary screen, MITF inhibitor project, cell-based, luminescence | hit rate 0.28% among 37,000 | inhibition, % (concentration not given with the values) | TRPM1 promoter luciferase, 24 h | AID 2240, 2010;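 active = most replicates at 85% or more, or half of them and the mean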;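 also: human melanocyte line stably carrying TRPM1 promoter luciferase reporter; 0% = vehicle wells and 100% = a positive control; the first replicate is given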
Numbers without * were called inactive; nt = no result given.

SMILES	PD-1 reversal	Shh pathway inh	YB-1 expr inh	MITF inh
O=C(O)CNC(=O)C1COc2ccccc2O1 (stereo unspecified)	0.1	nt	nt	-9
Cc1cccc(C)c1OCC(=O)Nc1cccc(C(=O)O)c1	2.7	nt	nt	21
Cc1noc(C)c1NC(=O)Nc1ccc2c(c1)C(=O)N([C@@H](C)CO)C[C@H](C)[C@@H](CN(C)Cc1ccc(C(=O)O)cc1)O2	0.6	nt	0.31	-8
COc1ccc(CN(C)C[C@@H]2Oc3c(NC(=O)c4cc(C)nn4C)cccc3C(=O)N([C@H](C)CO)C[C@H]2C)cc1	nt	8	0.16	10
O=C(c1cc2cc(Br)ccc2oc1=O)N1CCN(CCN2C(=O)c3cccc4cccc(c34)C2=O)CC1	3.3	nt	nt	35
O=C(COC(=O)c1cc2ccccc2oc1=O)c1ccccc1	0.4	-17	0.56	11
C[C@@H]1CCCCO[C@H](CN(C)Cc2ccncc2)[C@@H](C)CN([C@H](C)CO)C(=O)c2cc(NC(=O)Nc3ccc4c(c3)OCO4)ccc2O1	nt	nt	0.037	-26
CCC(Sc1nnnn1-c1ccccc1)C(=O)Nc1cccc([N+](=O)[O-])c1 (stereo unspecified)	0.8	nt	nt	13
COc1ccc(NC(=O)c2ccc(OC(C)C(=O)Nc3ccccc3C(F)(F)F)cc2)cc1Cl (stereo unspecified)	1.0	nt	nt	30
C[C@H]1CN([C@@H](C)CO)C(=O)Cc2cc(NC(=O)Nc3ccc(C(F)(F)F)cc3)ccc2O[C@H]1CN(C)C(=O)Nc1ccc2c(c1)OCO2	-1.8	-23	0.4	-13
CSc1sc(C#N)c2c1C(=O)CC(c1ccccc1)C2 (stereo unspecified)	-0.9	86*	-0.44	11
C[C@@H]1CN([C@H](C)CO)C(=O)Cc2cc(NC(=O)Cc3ccccc3)ccc2O[C@H]1CN(C)S(=O)(=O)c1cn(C)cn1	0.5	3	-0.0069	-9
C[C@@H]1CN([C@H](C)CO)C(=O)c2cccc(NC(=O)Nc3ccc(C(F)(F)F)cc3)c2O[C@@H]1CN(C)Cc1ccc2c(c1)OCO2	-3.7	-25	0.0036	1
C[C@H]1CN([C@@H](C)CO)C(=O)c2cc(NC(=O)CCN3CCOCC3)ccc2O[C@@H]1CN(C)Cc1ccc(C(=O)O)cc1	1.5	-18	0.24	-20
COc1cc(C)c(Cl)cc1S(=O)(=O)NCC1CCCO1 (stereo unspecified)	3.1	nt	nt	-16
C[C@@H]1CN([C@@H](C)CO)C(=O)c2cccc(NS(=O)(=O)c3ccccc3)c2O[C@@H]1CN(C)C(=O)Nc1ccc2c(c1)OCO2	-1.7	17	0.067	-1
COC(=O)c1ccc(NC(=O)CSc2nc3ccccc3c(=O)n2-c2ccc(Cl)cc2)cc1	-1.9	nt	nt	1
CCn1c(SCC(=O)Nc2cc(C)c(C)cc2Br)nnc1-c1ccccc1F	-0.4	nt	nt	-1
COc1ccc(S(=O)(=O)N(C)C[C@H]2Oc3ccc(NC(=O)Cn4cnnn4)cc3CC(=O)N([C@@H](C)CO)C[C@@H]2C)cc1	nt	-22	0.038	1
CN(CC(=O)O)S(=O)(=O)c1ccc2c(c1)OCCO2	1.3	nt	nt	2
C[C@H]1CN([C@@H](C)CO)C(=O)Cc2cc(NC(=O)Nc3cccc4ccccc34)ccc2O[C@H]1CN(C)S(=O)(=O)c1cn(C)cn1	nt	-6	-0.36	1
O=C(ON1C(=O)c2ccccc2C1=O)c1ccco1	-3.4	nt	0.012	-1
CC[C@H]1C(=O)CC2C3CCC4C[C@@H](O)[C@]5(O)C[C@]4(CO5)C3CC[C@@]21C (stereo partly specified)	nt	-13	0.012	nt
Cc1noc(C)c1NC(=O)N(C)C[C@H]1Oc2c(NS(=O)(=O)c3ccc(F)cc3)cccc2C(=O)N([C@@H](C)CO)C[C@H]1C	1.7	-43	0.25	-4
Cc1nc(SCC(=O)N2CCc3ccccc32)c2c3c(sc2n1)CCCC3	0.8	nt	nt	-29
SMILES	PD-1 reversal	Shh pathway inh	YB-1 expr inh	MITF inh
CC(C)N1CCN(c2ccc(OC[C@H]3CO[C@](Cn4cncn4)(c4ccc(Cl)cc4Cl)O3)cc2)CC1	nt	45	0.2	-6
CC(=O)[C@@]1(O)CCC2C3C[C@H](C)C4=CC(=O)C=CC4(C)[C@@]3(F)[C@@H](O)C[C@@]21C (stereo partly specified)	nt	59	-0.71	-10
COc1c(O)cc2c(c1O)C(=O)OC(C)C2Oc1cc2c(c(O)c1OC)C(=O)OC(C)C2O (stereo unspecified)	nt	22	0.31	nt
O=C1CCCC(Cn2cncn2)C1 (stereo unspecified)	-0.1	-23	-0.27	10
C[C@H]1CN([C@@H](C)CO)C(=O)Cc2cc(NS(C)(=O)=O)ccc2O[C@H]1CN(C)S(=O)(=O)c1ccc(Cl)cc1	0.8	31	0.0052	-9
C[C@@H]1CN([C@@H](C)CO)C(=O)c2cccc(NS(C)(=O)=O)c2O[C@H]1CN(C)C(=O)Nc1ccc(C(F)(F)F)cc1	2.6	0	-0.21	-2
COc1cc2c(cc1-c1coc3c4c(ccc3c1=O)OC(C)(C)C=C4)OCO2	-1.0	-5	0.2	-11
C[C@@H]1CN([C@@H](C)CO)C(=O)c2cc(NS(=O)(=O)c3ccc(Cl)cc3)ccc2O[C@H]1CN(C)Cc1ccc2c(c1)OCO2	0.0	nt	0.29	-6
CNC[C@H]1Oc2c(NC(=O)c3ccc(-c4nccs4)cc3)cccc2C(=O)N([C@@H](C)CO)C[C@@H]1C	1.2	17	-0.37	-8
CC(C)(C)c1nc2c(o1)NC(N)=C(C(N)=O)C2c1ccc(OCC#N)cc1 (stereo unspecified)	-12	17	0.54	1
Cc1ccc(/C=C2/C(=O)N=C(N)N2C)s1	-0.4	-36	0.52	-1
Cc1noc(C)c1NC(=O)Nc1ccc2c(c1)C(=O)N([C@H](C)CO)C[C@H](C)[C@H](CN(C)CC1CC1)O2	0.6	-25	0.094	-1
C[C@@H]1CN([C@@H](C)CO)C(=O)c2cc(NS(=O)(=O)c3cccs3)ccc2O[C@H]1CN(C)CC1CCCCC1	nt	-13	0.51	-8
C[C@@H]1CN([C@@H](C)CO)C(=O)c2cccc(NC(=O)c3ccc(-c4nccs4)cc3)c2O[C@H]1CN(C)CC1CCCCC1	-3.3	17	0.088	46
CCNS(=O)(=O)c1cccc2c(N)cccc12	0.5	9	0.24	7
COc1cc(OC)c2c(=O)c(-c3ccc4c(c3)OCO4)coc2c1	nt	-55	-0.4	-30
C[C@@H]1CN([C@H](C)CO)C(=O)c2cccc(NS(=O)(=O)c3ccc(Cl)cc3)c2O[C@@H]1CN(C)S(=O)(=O)c1cccs1	-0.4	-13	-0.053	-4
CCCCC/C=C\C/C=C\CCCCCCCC(=O)OC(CO)COP(=O)(O)OCC[N+](C)(C)C (stereo unspecified)	nt	-29	0.26	nt
CC(C)(C)C1CCc2c(sc3nc(-c4cccs4)oc(=O)c23)C1 (stereo unspecified)	-0.8	-12	-0.24	-11
CNC[C@H]1Oc2ccc(NC(=O)Nc3ccccc3)cc2CC(=O)N([C@H](C)CO)C[C@H]1C	0.3	nt	0.053	3
COc1ccc(-n2c(Cn3ncc4ccccc4c3=O)n[nH]c2=S)cc1	0.1	nt	nt	-1
C[C@@H]1CN([C@H](C)CO)C(=O)c2cccc(NS(=O)(=O)c3cn(C)cn3)c2O[C@@H]1CN(C)Cc1ccncc1	1.2	-24	0.19	-5
CC(C)NC(=O)Nc1ccc2c(c1)C(=O)N([C@@H](C)CO)C[C@@H](C)[C@@H](CN(C)S(=O)(=O)c1ccc(F)cc1)O2	0.1	-10	-0.47	1
COc1ccc(CN2C(=O)C(O)(CC(=O)c3c(C)n[nH]c3C)c3ccccc32)cc1OC (stereo unspecified)	-0.6	nt	nt	0
Cc1noc(C)c1NC(=O)Nc1ccc2c(c1)CC(=O)N([C@H](C)CO)C[C@H](C)[C@H](CN(C)Cc1ccc3c(c1)OCO3)O2	1.2	-9	-0.054	0
SMILES	PD-1 reversal	Shh pathway inh	YB-1 expr inh	MITF inh
Cc1cc(C)c(NC(=O)CN(c2cccc(Br)c2)S(C)(=O)=O)c(C)c1	2.0	nt	nt	9
C[C@@H]1CN([C@H](C)CO)C(=O)c2cccc(NS(=O)(=O)c3ccccc3)c2O[C@H]1CN(C)S(=O)(=O)c1cn(C)cn1	3.2	-10	-0.15	-4
CC(C)NC(=O)N(C)C[C@H]1Oc2c(NC(=O)Nc3ccc4c(c3)OCO4)cccc2C(=O)N([C@H](C)CO)C[C@H]1C	nt	-1	-8.2	-1
C[C@@H]1CN([C@@H](C)CO)C(=O)c2cc(NC(=O)CCN3CCOCC3)ccc2O[C@H]1CN(C)C(=O)NC1CCCCC1	nt	-20	-0.18	-7
CCN(CC)C(=O)c1cccc(Cl)c1	0.0	-37	0.22	-16
Cc1ccc(-c2noc(CSc3nnc(-c4ccccc4)n3C)n2)cc1	0.7	nt	nt	-5
COc1ccc(CSc2nnc(CSc3cccs3)n2C)cc1	0.9	8	-0.54	-5
C[C@@H]1CN([C@@H](C)CO)C(=O)c2cc(N(C)C)ccc2O[C@H]1CN(C)C(=O)Nc1ccc(F)cc1	0.0	10	-0.19	2
Cc1ccc2nc(-c3cccc(NC(=O)COc4ccccc4)c3C)oc2c1	-0.5	nt	nt	70
CC(c1ccccc1)n1c(Cn2ncc3ccccc3c2=O)n[nH]c1=S (stereo unspecified)	-2.0	nt	nt	-11
O=C(O)CCc1nc(-c2ccccc2)c(-c2ccccc2)o1	nt	-20	-0.21	11
C[C@@H]1CN([C@@H](C)CO)C(=O)Cc2cc(NC(=O)c3ccncc3)ccc2O[C@@H]1CN(C)CC1CCCCC1	1.1	nt	-0.31	-10
COC(=O)c1ccc2c(c1)N(C)S(=O)(=O)/C(=C\Nc1ccc(Cl)cc1)C2=O	0.4	9	0.083	5
C[C@@H]1CCCCO[C@@H](CN(C)Cc2ccc3c(c2)OCO3)[C@@H](C)CN([C@H](C)CO)C(=O)c2cc(NC(=O)Nc3ccccc3)ccc2O1	0.3	nt	-0.3	15
COC(=O)c1ccccc1NC(=O)Cn1nc(C)c([N+](=O)[O-])c1C	1.4	nt	nt	-11
Cc1ccc(S(=O)(=O)N(C)C[C@H]2Oc3c(NC(=O)NC4CCCCC4)cccc3C(=O)N([C@H](C)CO)C[C@@H]2C)cc1	0.3	2	-0.0061	17
C[C@@H]1CN([C@H](C)CO)C(=O)c2cc(NS(=O)(=O)c3ccc(Cl)cc3)ccc2O[C@H]1CN(C)S(=O)(=O)c1ccc(F)cc1	2.5	nt	0.37	-2
CCC(C)C1=NN(C(=O)c2ccccc2)C(O)(C(=O)OC)C1 (stereo unspecified)	0.4	-33	0.58	-49
Cc1noc(C)c1S(=O)(=O)Nc1ccc2c(c1)C(=O)N([C@H](C)CO)C[C@H](C)[C@H](CN(C)C(=O)CCC(F)(F)F)OCCCC[C@@H](C)O2	1.5	-32	0.23	3
C[C@@H]1CN([C@@H](C)CO)C(=O)c2cc(NC(=O)CCCCCC(=O)Nc3ccccc3N)ccc2O[C@H]1CN(C)Cc1ccccc1	0.5	nt	0.043	12
C=C(C(=O)O)C1C(OC(=O)/C(=C/CO)CO)CC(C)(O)C2CC(OC(C)=O)C(C)=CC12 (stereo unspecified)	0.5	-8	-0.11	7
C[C@@H]1CN([C@@H](C)CO)C(=O)c2cc(NC(=O)C3CCCCC3)ccc2O[C@@H]1CN(C)S(C)(=O)=O	1.1	nt	0.06	-4
C[C@H]1CN([C@@H](C)CO)C(=O)Cc2cc(NC(=O)Cc3cn(C)c4ccccc34)ccc2O[C@H]1CN(C)S(=O)(=O)c1ccc(F)cc1	0.3	39	-0.16	17
COc1cccc(NC(=O)CSc2nnc(-c3ccccc3)n2-c2ccc(Cl)cc2)c1	-2.1	nt	nt	19
Cc1noc(C)c1NC(=O)Nc1cccc2c1O[C@H](CN(C)Cc1ccncc1)[C@H](C)CN([C@H](C)CO)C2=O	1.6	-35	0.25	4

A draw from above in order of length of the SMILES, highest first.
SMILES	PD-1 reversal	Shh pathway inh	YB-1 expr inh	MITF inh
C[C@@H]1CCCCO[C@@H](CN(C)Cc2ccc3c(c2)OCO3)[C@@H](C)CN([C@H](C)CO)C(=O)c2cc(NC(=O)Nc3ccccc3)ccc2O1	0.3	nt	-0.3	15
C[C@@H]1CN([C@H](C)CO)C(=O)c2cc(NS(=O)(=O)c3ccc(Cl)cc3)ccc2O[C@H]1CN(C)S(=O)(=O)c1ccc(F)cc1	2.5	nt	0.37	-2
Cc1ccc(S(=O)(=O)N(C)C[C@H]2Oc3c(NC(=O)NC4CCCCC4)cccc3C(=O)N([C@H](C)CO)C[C@@H]2C)cc1	0.3	2	-0.0061	17
CC(C)NC(=O)N(C)C[C@H]1Oc2c(NC(=O)Nc3ccc4c(c3)OCO4)cccc2C(=O)N([C@H](C)CO)C[C@H]1C	nt	-1	-8.2	-1
Cc1cc(C)c(NC(=O)CN(c2cccc(Br)c2)S(C)(=O)=O)c(C)c1	2.0	nt	nt	9
COc1ccc(CSc2nnc(CSc3cccs3)n2C)cc1	0.9	8	-0.54	-5

Screens (PubChem)

Not all compounds are listed (hit frequency here may not be typical).
